gsp antagonist = antagonists of gsp mutant (McCune-Albright syndrome) | actives 0.4% (n = 340,000) | gsp-mutant cells, cAMP HTRF, 30 min; control for the full effect not named in the record | Potency, µM (highest dose often 76.9 µM), for inactives: top-dose activity change, negative = inhibition, most hits filed as inhibitors; active = falling curve of any shape with a large fitted effect; inconclusive = falling curve, mostly with a smaller effect; inactive = flat or rising curve; cell line not stated here;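 also: intracellular cAMP measured with PDE inhibitor Ro 20-1724 present during compound exposure; potency is read from the fitted curve at half-maximal effect; % is scaled to controls: 0 for no effect and ±100 for the full control effect; nearly all actives have a fitted effect of over 65% in size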
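Cells, 2000/well, grown 16–24 h in DMEM 10% FBS with 0.5 mg/ml G418, then compounds plus […] (300 uM addition stock), 30 min at 37C. cAMP read by HTRF (cAMP-d2 and anti-cAMP antibody-K in lysis buffer) after 30 min RT.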
ClpP mod = qHTS Assay for Activators of ClpP | ATP-dependent Clp protease proteolytic subunit (Bacillus subtilis (strain 168)), P80244 | purified B. subtilis ClpP, FRET peptide cleavage, 20 min | Potency, µM (highest dose often 57.5 µM), without a hit: top-dose activity change, negative = active | actives 1.9% (n = 340,000) | AID 651965, 2013; active = well fitted falling curve with a large enough effect; inconclusive = small, poorly fitted or top-dose-only effect; inactive = no such curve, though single readings can be large or run the other way; also: potency is read from the fitted curve at half-maximal effect; the source files actives as falling curves though it sought activators and does not explain the sign; nearly all actives have a fitted effect of over 65% in size; many hits overshoot -100%
Target sequence (P80244 whole entry, looked up): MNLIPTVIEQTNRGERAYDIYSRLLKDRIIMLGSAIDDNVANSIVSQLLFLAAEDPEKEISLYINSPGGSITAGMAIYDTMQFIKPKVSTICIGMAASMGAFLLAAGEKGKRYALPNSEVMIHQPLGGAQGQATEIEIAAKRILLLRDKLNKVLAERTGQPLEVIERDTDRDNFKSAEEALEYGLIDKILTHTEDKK
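Buffer: 100 mM Tris/HCl pH8, 100 mM KCl, 0.05% low protease BSA, 2.5% glycerol, 0.01% Tween-20. ClpP 10 microg/mL final; 20 min RT; delta FRET normalized to ADEP and DMSO controls.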
TRPV1 PAM = human TRPV1 potentiation | actives 0.02% (n = 320,000) | potentiation, % at 8.33 µM | Q8NER1 | TRPV1-expressing cells, Fluo-8 calcium influx, capsaicin EC20 potentiation; host cell line not named in the record; control for the full effect not named in the record | AID 540277; active means potentiation above 80%; inconclusive means 30% to 80%; inactive means below 30%; also: 0% is about no effect
Target sequence (Q8NER1 whole entry, looked up): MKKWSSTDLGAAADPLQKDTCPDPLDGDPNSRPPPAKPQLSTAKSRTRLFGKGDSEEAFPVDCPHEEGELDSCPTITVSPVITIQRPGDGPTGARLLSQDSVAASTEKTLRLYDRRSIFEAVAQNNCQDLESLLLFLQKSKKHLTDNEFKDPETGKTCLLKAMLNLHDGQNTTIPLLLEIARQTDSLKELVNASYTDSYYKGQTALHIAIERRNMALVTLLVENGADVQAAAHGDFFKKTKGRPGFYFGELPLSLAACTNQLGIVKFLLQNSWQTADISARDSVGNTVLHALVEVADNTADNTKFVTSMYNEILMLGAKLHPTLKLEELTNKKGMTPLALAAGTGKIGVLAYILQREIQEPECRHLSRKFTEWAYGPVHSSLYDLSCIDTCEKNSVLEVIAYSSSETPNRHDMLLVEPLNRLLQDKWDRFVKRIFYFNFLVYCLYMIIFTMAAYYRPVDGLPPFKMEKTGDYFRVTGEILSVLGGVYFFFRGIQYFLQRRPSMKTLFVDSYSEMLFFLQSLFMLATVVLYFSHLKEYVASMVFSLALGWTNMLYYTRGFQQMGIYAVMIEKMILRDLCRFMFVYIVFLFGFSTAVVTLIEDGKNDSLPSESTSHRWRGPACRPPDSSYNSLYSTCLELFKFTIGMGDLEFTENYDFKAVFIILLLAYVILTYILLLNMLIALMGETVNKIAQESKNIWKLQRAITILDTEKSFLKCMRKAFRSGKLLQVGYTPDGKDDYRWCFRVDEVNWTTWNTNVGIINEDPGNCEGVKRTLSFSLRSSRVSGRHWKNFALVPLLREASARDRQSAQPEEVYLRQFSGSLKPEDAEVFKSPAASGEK
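Cells expressing TRPV1 were dye-loaded with Fluo-8 and read kinetically: 10 s baseline, 3 min after compound (agonist portion), then 2 min after EC20 capsaicin (allosteric enhancer portion). Calcium-bound dye fluorescence at 480/520 nm.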
Sfp inh = Sfp phosphopantetheinyl transferase inhibition | Q9F4F7 | Biochemical Sfp PPTase activity, qHTS | Potency, µM, inactives show max response, negative = inhibition, usual class: inhibitors | actives 3.5% (n = 310,000) | AID 1490; active = well fitted inhibition curve with a large enough effect; inconclusive = small, poorly fitted or top-dose-only effect, or another doubt; inactive = no such curve, though single readings can be large or run the other way;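 also: the enzyme is Sfp with the accession as filed and its product quenches rhodamine fluorescence; potency is read from the fitted curve at half-maximal effect; 0% = enzyme reaction without inhibitor and -100% = no enzyme wells; top concentration of the series not given in the record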
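Fluorescence-quenching assay: 15 nM Sfp-PPTase preincubated 15 min at room temperature with compound, then 5 uM rhodamine-CoA and 12.5 uM BHQ-2-labelled YbbR peptide added. Fluorescence (ex 525/em 598 nm) read at start and after 30 min; difference gives rate.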
Menin-MLL FL inh = displaces fluorescein MLL peptide from human menin. Fluorescence polarization, fluorescein-MLL peptide displacement from menin. FP activity change, % at 61.4 µM. 290,000 tested, under 10 active. AID 1766; inconclusive = falling polarisation curve, or a change in total fluorescence; inactive = total fluorescence flat and polarisation flat or rising; no compound was filed as active; the % refers to the polarisation; negative = inhibition;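 also: % of control where 0% means no effect; inhibitors lower the polarisation; unlabelled MLL peptide was the positive control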
CtBP-E1A blk = blocks the CtBP interaction with E1A; activity change, % (concentration not given with the values); actives 0.49% (n = 340,000); AlphaScreen GST-E1A/His-CtBP binding, 1536-well; stronger effect = lower value; control for the full effect not named in the record; in the data active means activity change below about -65%; inconclusive means about -30% to -65%; inactive means above about -30%; also: % is scaled to controls: 0 for no effect and ±100 for the full control effect
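Steps: dispense buffer (Tris pH 8.0, NaCl 300 mM, TCEP 1 mM, BSA, Tween 20); add 5X protein mix (GST-E1A, His-CtBP, 125 nM each); pin 23 nL compound; 2 h at 37 °C, dark; add 5X beads (50 ug/mL); 1 h; read.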
gsp ag = activates gsp, the McCune-Albright syndrome mutation. gsp mutant cells, cAMP HTRF, 30 min; control for the full effect not named in the record. Potency, µM (titrated, usually from 76.9 µM), inactives show at the top dose activation (cAMP increase), hits mostly activators. actives 0.13% (n = 340,000). AID 624287; active = well fitted activation curve with a large enough effect; inconclusive = small, poorly fitted or top-dose-only effect, or another doubt; inactive = no such curve, though single readings can be large or run the other way; cell line not stated here;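 also: phosphodiesterase inhibitor Ro 20-1724 added with compounds to block cAMP breakdown; potency is read from the fitted curve at half-maximal effect; nearly all actives have a fitted effect of over 60% in size; about a fifth of the inactives were tested at one dose only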
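Cells in DMEM/10% FBS with G418 were pretreated with compounds in DMSO plus […] (300 uM stock) for 30 min at 37C. cAMP was measured by HTRF (cAMP-d2 plus anti-cAMP antibody-K) after 30 min at room temperature.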
* marks the source's active call; other numbers are inactive results; u = inconclusive; x = no result given; [ ] = another dose, or the depositor's remark. Random draw from the library; any-hit rate near 5.3%.

SMILES | TRPV1 PAM | Sfp inh | gsp antagonist | CtBP-E1A blk | gsp ag | ClpP mod | Menin-MLL FL inh
CCN1C(=O)[C@H]2[C@@H](c3ccc(C)cc3)N[C@]3(CCCN(Cc4ccccc4)C3=O)[C@H]2C1=O | x | x | x | 7 | -23% | -2.2% | x
COc1cccc(NC(=O)CN2C(=O)NC3(CCc4ccccc43)C2=O)c1 (stereo not given) | -1 | x | 19% | 3 | 12% | 0.3% | x
Clc1ccc2nc3c4ccccc4cnn3c2c1 | -4 | 12% | 4% | -5 | 23% | x | 1.8
Cc1ccc(S(=O)(=O)NCC(=O)N/N=C/c2ccc(Cl)cc2)cc1 | 6 | -2% | 4% | -6 | u | 0.6% | 2.5
CN1CCN(S(=O)(=O)c2ccc(Oc3cccc(C(F)(F)F)c3)nc2)CC1 | 5 | x | 15% | 1 | 30% | 0.6% | x
O=C(NNC(=O)c1ccccc1C(=O)O)c1ccc(S(=O)(=O)N2CCCCC2)cc1 | -18 | 10% | -9% | 15 | 20%[15.4 µM] | x | -2.0
O=C(Nc1ccnn1C1CCN(CC2CC=CCC2)CC1)c1ccccc1Cl (stereo not given) | 1 | 14% | 9% | 0 | -2% | -1.2% | -23
COc1cc(OC)cc(C(=O)NNC(=O)CCNS(=O)(=O)c2ccc(Br)cc2)c1 | x | x | 2% | -22 | -2% | -8.7% | x
Cc1ccc(/C=C/C(=O)O)cc1S(=O)(=O)Nc1ccc2c(c1)OCO2 | -1 | u | 3% | 7 | -6% | x | 2.2
CCCCCCNS(=O)(=O)c1ccc(Cl)s1 | -14 | 12% | -3% | 23 | -3% | 0.9% | -1.1
CCCCN(C(=O)C1CCC1)c1c(N)n(Cc2ccccc2)c(=O)[nH]c1=O | 10 | x | 19% | 2 | 13% | -0.1% | x
O=C(Nc1ccc(SC(F)F)cc1)C1=COCCO1 | -21 | -7% | 6% | -13 | -75%[inhibitor] | -1.1% | 3.5
CC(Cc1cccs1)N(Cc1ccc(Cl)cc1)C(=O)c1ccncc1 (stereo not given) | -7 | -6% | -7% | x | 18% | 2.2% | 0.4
C=CCN(c1ccccc1OC)S(=O)(=O)c1cccc(C(=O)OCC(=O)N2CCOCC2)c1 | x | x | -4% | x | 13% | 0.9% | x
CC(NC(=S)Nc1c(Br)cccc1OC(F)F)C(C)(C)C (stereo not given) | -13 | 6% | 7% | -8 | -20% | 0.7% | -0.2
O=C(CSC1=NCCS1)Nc1nc2c(s1)CCCC2 | x | 56µM* | -6% | -2 | -36% | -1.1% | 17
O=C(COC(=O)CSc1cc(Cl)ccc1Cl)Nc1ncc(C(F)(F)F)cc1Cl | 2 | u | -33% | 3 | -11%[15.4 µM] | 0.5% | 7.5
CCn1c(SCC(N)=O)nnc1-c1ccc(S(=O)(=O)N2CCN(C)CC2)cc1 | 4 | 7% | 7% | 2 | -69%[inhibitor] | 32µM* | 3.0
Cc1cnc(NC(=O)c2ccc3ncsc3c2)s1 | -26 | x | 8% | -8 | 1%[15.4 µM] | -13% | x
Cc1cc(=O)cc(C)n1-c1ccc(Br)cc1 | 0 | 7% | 9% | x | -20%[15.4 µM] | x | -3.7
COc1ccc(NC(=O)CCCn2cnc3ccccc3c2=O)cc1 | 7 | 50µM* | -11% | 0 | -6%[15.4 µM] | 0.0% | 3.3
COc1cccc2c(Nc3ccccc3C)cc(C)nc12 | -17 | 0% | -6% | -4 | 3%[15.4 µM] | -0.3% | 5.7
COC(=O)c1ccc(COc2ccccc2/C=N/NC(=O)c2cccnc2)cc1 | 1 | 11% | -15% | -13 | -12% | 1.7% | 1.0
CCOc1cc(C(=O)NCc2nnc(SCC(=O)OC)n2C)cc(OCC)c1OCC | 23 | 13% | 15% | 4 | -55% | -2.3% | -1.6
O=C(Nc1ccc(-c2nnc3n2CCCCC3)cc1)c1ccco1 | -4 | -6% | 2% | 1 | u | 1.3% | 4.3
Cc1ccc2scc(CN3CCCC3)c2c1 | x | x | -23% | 5 | -7%[15.4 µM] | u | x
O=[N+]([O-])c1ccccc1N=Nc1ccc(O)cc1O | x | x | u | 10 | -1%[15.4 µM] | 1.2% | x
COc1ccc(NC(=S)N(CCCN2CCCCCC2)Cc2cccs2)cc1 | -33 | 2% | 7% | 6 | -2%[15.4 µM] | x | -4.3
Cc1cc(C)c(NC(=O)c2ccc3nccnc3c2)c(C)c1 | 11 | x | -3% | 2 | 5%[15.4 µM] | x | x
COc1cccc(NS(=O)(=O)c2ccc(-c3coc(C)n3)cc2)c1 | -1 | 1% | -10% | -7 | 23% | -2.4% | -0.8
CC(C)c1ccc(CNn2cnnc2)cc1 | -12 | 12% | 0% | 6 | 5% | x | -3.8
C[C@@H]1CN([C@H](C)CO)C(=O)CCCn2nncc2CO[C@H]1CN(C)Cc1ccc2c(c1)OCCO2 | x | x | x | 5 | u | -1.7% | x
CN1C(C(=O)Nc2ccccn2)=C(O)c2sc(Cl)cc2S1(=O)=O | -2 | u | -7% | 1 | x | 1.4% | -0.3
Cc1nc2ccccc2c(=O)n1/N=C/c1ccco1 | -14 | 10% | 6% | -22 | u | -3.2% | 0.0
COc1ccc(OCC(=O)OCC(=O)NCc2ccc(F)cc2)cc1 | -14 | 7% | 4% | -7 | 18% | -2.4% | 0.9
CCOC(=O)C1(CCCc2ccccc2)CCN(C(=O)COC)CC1 | -20 | 14% | -7% | -1 | 2% | 0.1% | 6.6
Cc1nn(Cc2ccc(Cl)cc2)c(C)c1NC(=O)c1ccc([N+](=O)[O-])cc1 | -3 | 10% | -24% | 2 | 17%[15.4 µM] | -0.6% | 2.8
C=CCC(=O)N1CCCC(CCC(=O)NCc2ccccc2F)C1 (stereo not given) | -6 | 12% | 8% | 10 | -9%[15.4 µM] | 0.6% | 1.2
COc1ccc(C2C(C#N)=C(N)OC3=C2C(=O)CC(C)(C)C3)cc1 (stereo not given) | -5 | 3% | 0% | 12 | u | 2.3% | -1.6
COc1ccc(CNC(=O)Cn2nc(C)c3c(C)n(-c4ccc(C)cc4)nc3c2=O)cc1OC | 5 | -6% | -14% | -16 | 17% | -4.8% | x
O=C(NCc1cccc(F)c1F)C1CCC(=O)N(C2CCCCCC2)C1 (stereo not given) | -4 | 1% | 4% | 4 | 22% | -0.3% | x
CC(=O)N1CCN(c2ccc(NCc3ccc4c(c3)OCO4)cc2)CC1 | 14 | 16µM* | -13% | -9 | 4% | -3.5% | -5.4
CCN1C(=O)N[C@@H](CCc2ccccc2)[C@H](C(C)=O)[C@H]1C | x | -4% | 9% | 3 | x | 0.2% | -1.2[11.7 µM]
Cc1ccc(S(=O)(=O)Cc2ccc(C(=O)NC3CCCC3)o2)cc1 | 0 | 10% | 2% | 8 | 14% | -3.2% | 2.4
Cn1nc(C(=O)N2CCCCC2)c2c1-c1ccccc1S(=O)(=O)C2 | -10 | 13% | 6% | 0 | u | -13% | -3.6
CN(CC(=O)Nc1ccccc1Cl)C(=O)COC(=O)C1CCN(c2ccc(C(F)(F)F)cn2)CC1 | -10 | x | -5% | -1 | -9% | -15% | x
Cc1ccc(-n2cc(C(=O)c3ccc(F)cc3)nn2)cc1Cl | -12 | 5% | 8%[15.4 µM] | 9 | -34%[inhibitor] | -1.6% | 1.0
Cc1cc(C)cc(Nc2cnn(C34CC5CC(CC(CC(=O)O)(C5)C3)C4)c(=O)c2Cl)c1 | 7 | -3% | -22% | -3 | 10% | -1.8% | -0.9
Cc1ccc(C(=O)C[n+]2ccc3ccccc3c2)cc1 | -12 | 0% | -6% | 9 | -8% | x | -1.8
OC(c1cccnc1)c1cccs1 (stereo not given) | 8 | 6% | -2% | -2 | -1% | 0.9% | -0.7
CCOC(=O)/C(C#N)=C1/SC(CC)C(=O)N1c1ccc(C)cc1 (stereo not given) | -1 | 7% | -12%[15.4 µM] | 14 | -21% | -0.8% | 6.9
CCc1cc(=O)oc2cc(C)cc(OCC(=O)NC3CC3)c12 | 14 | 16% | -4% | x | 2% | 4.4% | 2.7
COC(=O)c1[nH]c(C)c(/C(O)=C2\C(=O)C(=O)N(CCN(C)C)C2c2ccco2)c1C (stereo not given) | 3 | 4% | 17% | -16 | u | -13% | -1.0
CCOc1ccc(NC(=O)NC2CCS(=O)(=O)C2)cc1 (stereo not given) | -2 | 3% | 17% | 5 | -2%[15.4 µM] | x | 1.9
O=C(O)CCC(NC(=O)C(Cc1ccc2c(c1)OCO2)NC(=O)c1ccccc1)C(=O)O (stereo not given) | 2 | 1% | x | x | x | x | -4.1
Cc1ccc(N2CCN(C(=O)C3CCCN(c4ncnc5c4nc4n5CCCCC4)C3)CC2)c(C)c1 (stereo not given) | -10 | -25% | 4% | x | -51%[inhibitor] | -3.2% | x
C/C(=N\OCC(=O)N/N=C/c1ccc(C)cc1O)c1cccs1 | 15 | 11% | u | u | 0% | -4.2% | 1.6
S=c1[nH]nc(Cn2nnc3ccccc32)n1-c1ccccc1 | 3 | 5% | x | -11 | 6%[15.4 µM] | x | 2.0
Cc1cc(C(=O)COC(=O)C2CC2)c(C)n1-c1ccc(F)cc1 | -16 | 4% | 15% | -1 | -11%[15.4 µM] | 108% | -3.9
Cc1noc(C)c1CSc1ncnc2sc3c(c12)CCC3 | -13 | -13% | x | x | x | x | 0.9
Cc1ccccc1NC(=S)Nc1ccc2cn[nH]c2c1 | 5 | -7% | 9% | -1 | 13%[15.4 µM] | x | 2.1
CCOC(=O)c1c(NC(=O)Cn2nc(C(=O)O)c3ccccc3c2=O)sc(C)c1C | x | -22% | -7% | 0 | -4%[15.4 µM] | x | 8.0
Cc1ccc(C(=O)OCn2ncc(Cl)c(Cl)c2=O)cc1 | 9 | u | 23% | 10 | 0% | -0.3% | -0.3

Screening data from PubChem.
